ugtP null kill = growth inhibition of S. aureus ugtP deletion strain; S. aureus RN4220 ugtP deletion, OD600 growth, 16 h; some inactives read as strong as hits; growth inhibition, % (no concentration beside the values); 330,000 tested, 0.54% active; AID 1259309;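 active means z-score under -3 and OD600 up to 0.15 on both plates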;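 further: plate controls were untreated wells for no effect and antibiotic for full effect; wells of about 80 µL received 100 nL stock; the first replicate is given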
BJeLR lethal = kills HRASV12-expressing BJeLR cells | BJeLR (HRASV12) viability, CellTiter-Glo ATP luminescence, 48 h; reference of the scale not given here | inhibition, % (test concentration not listed) | 300,000 tested, 0.17% active;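 active means replicate mean above 50%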;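 further: 50 nL library stock added to about 25 µL; numbers are from one replicate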
Sa RN4220 lethal = S. aureus RN4220 growth inhibition; OD600, 16 h; inhibition, % (test concentration not listed); 330,000 tested, 0.33% active;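 active means z-score of -3 or lower and OD600 up to 0.18 on both plates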;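 further: plate controls were untreated cells for no effect and reference antibiotic for full effect; stock transfer was 100 nL into about 80 µL; one replicate is shown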
Autofluor counter = counter-screen for toxin protease inhibitors: compound fluorescence | 360,000 tested, 3.1% active | AID 624483 | compound autofluorescence counterscreen, microsphere flow cytometry; hits give high values | fluorescence intensity (test concentration not listed);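 active means at least 3 SD above the mean of all compounds, about 16000 in these data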;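 further: 100 nL of 1 mM stock went into each well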
PrP 5UTR inh = inhibition of PrP 5' UTR reporter expression; cell-based PrP 5' UTR mRNA reporter, plate reader; inhibition, % (no concentration beside the values); 340,000 tested, 0.35% active; AID 488862;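 active means every replicate at 50% or more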;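 further: 0 = median of the neutral control wells; tested in H4 reporter cells; numbers are from one replicate; inactives centre near -14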
Mtb hypoxia inh = Mtb hypoxia fluorescent reporter inhibition. M. tuberculosis hypoxia-regulated fluorescent reporter, fluorescence. fluorescence inhibition, % (no concentration beside the values). 300,000 tested, 0.1% active;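 active means 35 to 45% if threefold the growth effect, above 45% if 1.5-fold the growth effect; inactive means the rest, general growth blockers included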;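 further: wells of about 50 µL received 100 nL stock; 0% = vehicle wells and 100% = reference inhibitor wells; whole bacteria with a GFP reporter of the hypoxia response; strong numbers were not always called active; many hits fall short of the cut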
Mtb hypoxia inh growth = second read-out of Mtb hypoxia inh, no call of its own (marks repeat the call); growth inhibition, %; measured here: M. tuberculosis growth (absorbance);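 0% = vehicle and 100% = reference antibiotic; read after six days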
Active calls of the source: *.

Results for Cc1cc(C(=O)N2CCN(c3ccc([N+](=O)[O-])cc3)CC2)c(C)o1 ?
ugtP null kill: 2; BJeLR lethal: -1; Sa RN4220 lethal: 1.6; Autofluor counter: 4074; PrP 5UTR inh: 0; Mtb hypoxia inh: 7; Mtb hypoxia inh growth: 3

What do the screens show for `CC(C)OC(=O)c1cc(NC(=O)c2nn(C)cc2Br)cc(C(=O)OC(C)C)c1`?
ugtP null kill: 0; BJeLR lethal: -20; Sa RN4220 lethal: 9.5; Autofluor counter: 2519; PrP 5UTR inh: -19

How did CC(C)c1ccc(C(=O)OCC(=O)c2c(N)n(C)c(=O)n(C)c2=O)cc1 do in these assays?
ugtP null kill: 7; Sa RN4220 lethal: 3.5; Autofluor counter: 3018; PrP 5UTR inh: -9; Mtb hypoxia inh: 2; Mtb hypoxia inh growth: 1

Results for CC1CCCCC1NC(=O)C(C#N)=Cc1ccc(F)c(F)c1 (centres undefined) ?
ugtP null kill: -3; Sa RN4220 lethal: 5.9; Mtb hypoxia inh: 11; Mtb hypoxia inh growth: 9

How did CCCC1=Nc2cc(C(=O)NCCCOCC)ccc2Sc2ccccc21 do in these assays?
ugtP null kill: 4; BJeLR lethal: 39; Sa RN4220 lethal: 5.7; Autofluor counter: 3806; PrP 5UTR inh: 58*; Mtb hypoxia inh: 5; Mtb hypoxia inh growth: 4

What do the screens show for `O=C(NCc1ccccc1)C1=CC(C2CCCCC2)CC(OCCCCO)O1` (centres undefined)?
ugtP null kill: 5; Sa RN4220 lethal: 6.6; Mtb hypoxia inh: 14; Mtb hypoxia inh growth: 8

Results for CCOC(=O)CSc1c(-c2ccccc2)c2cc(Cl)ccc2[nH]c1=O ?
ugtP null kill: -20; BJeLR lethal: -2; Sa RN4220 lethal: -0.5; Autofluor counter: 9695; PrP 5UTR inh: -23; Mtb hypoxia inh: 9; Mtb hypoxia inh growth: 5

Results for CS/C(=N\S(=O)(=O)c1cccs1)Nc1ccc(Cl)cc1 ?
ugtP null kill: 1; BJeLR lethal: 4; Sa RN4220 lethal: 5.3; Autofluor counter: 2123; PrP 5UTR inh: -16; Mtb hypoxia inh: 4; Mtb hypoxia inh growth: -1

What do the screens show for `O=C(COc1ccc(Cl)cc1)NCc1nnc(SCC(=O)NCCc2ccccc2)o1`?
ugtP null kill: 3; BJeLR lethal: 5; Sa RN4220 lethal: -1.4; Autofluor counter: 4809; PrP 5UTR inh: -12

What do the screens show for `CC(O)Cc1cn(CC(=O)N2CCNCC2)nn1` (centres undefined)?
ugtP null kill: -2; BJeLR lethal: 11; Sa RN4220 lethal: 5.4; Autofluor counter: 3948; PrP 5UTR inh: 1; Mtb hypoxia inh: 7; Mtb hypoxia inh growth: 3

Results for C=C(C)C(C)(C#CCN1CCCC1)OC(C)=O (centres undefined) ?
ugtP null kill: 1; BJeLR lethal: 2; Sa RN4220 lethal: 4.0; Autofluor counter: 18876*; PrP 5UTR inh: -5; Mtb hypoxia inh: 3; Mtb hypoxia inh growth: 6

What do the screens show for `CCc1nnc(NC(=O)c2ccc(NC(=O)C(C)C)cc2)s1`?
ugtP null kill: 0; BJeLR lethal: -2; Sa RN4220 lethal: 3.1; Autofluor counter: 4198; PrP 5UTR inh: -17; Mtb hypoxia inh: 8; Mtb hypoxia inh growth: 4

What do the screens show for `S=C1NCN(CCc2ccccc2)CN1Cc1ccccc1`?
ugtP null kill: -5; BJeLR lethal: 4; Sa RN4220 lethal: -0.8; Autofluor counter: 3651; PrP 5UTR inh: -17; Mtb hypoxia inh: -10; Mtb hypoxia inh growth: -2

How did CCCCC1=CC2=C(c3ccco3)C(=O)C(C)(OC(=O)c3ccc(OC)cc3)C(=O)C2=CN1C(CO)CO (centres undefined) do in these assays?
ugtP null kill: -2; BJeLR lethal: -18; Sa RN4220 lethal: 1.9; Autofluor counter: 2983; PrP 5UTR inh: 5; Mtb hypoxia inh: -4; Mtb hypoxia inh growth: -14

How did CCOC(=O)C1=C(CNCCOc2ccc(OC)cc2)NC(=O)NC1c1ccc2c(c1)OCO2 (centres undefined) do in these assays?
ugtP null kill: 9; BJeLR lethal: 0; Sa RN4220 lethal: 3.8; Autofluor counter: 4268; PrP 5UTR inh: -4; Mtb hypoxia inh: -1; Mtb hypoxia inh growth: -1

What do the screens show for `N#CCSc1nc2ccccc2c(=O)n1CCC(=O)NC1CCCCC1`?
ugtP null kill: 1; BJeLR lethal: 8; Sa RN4220 lethal: 1.1; Autofluor counter: 13399; PrP 5UTR inh: -4; Mtb hypoxia inh: -4; Mtb hypoxia inh growth: 14

What do the screens show for `Cc1cc(C(=O)CSc2ccc(F)cc2)cc(C)c1OC(=S)N(C)C`?
ugtP null kill: 42; BJeLR lethal: -2; Sa RN4220 lethal: -2.2; Autofluor counter: 2369; PrP 5UTR inh: 68*; Mtb hypoxia inh: -9; Mtb hypoxia inh growth: 3

How did Cc1c(Br)cc(C(=O)N2CCN(CCO)CC2)c(C)c1C do in these assays?
ugtP null kill: -7; BJeLR lethal: -6; Sa RN4220 lethal: 8.8; Autofluor counter: 8672; PrP 5UTR inh: -22; Mtb hypoxia inh: 7; Mtb hypoxia inh growth: 6

What do the screens show for `O=C(NCc1cccnc1)c1ccc(S(=O)(=O)N2CCCCCC2)cc1`?
ugtP null kill: -4; BJeLR lethal: 3; Sa RN4220 lethal: -4.5; Autofluor counter: 4181; PrP 5UTR inh: -15; Mtb hypoxia inh: -5; Mtb hypoxia inh growth: -6

How did O=C1NC(=O)/C(=C/c2ccccc2OCc2ccccc2)S1 do in these assays?
ugtP null kill: 62; BJeLR lethal: -2; Sa RN4220 lethal: 63; Autofluor counter: 4031; PrP 5UTR inh: -16; Mtb hypoxia inh: 11; Mtb hypoxia inh growth: 2

How did CCCc1cc(=O)[nH]c(SCC(=O)N2c3ccccc3NC(=O)C2(C)C)n1 do in these assays?
ugtP null kill: -4; Sa RN4220 lethal: -0.4; PrP 5UTR inh: -9; Mtb hypoxia inh: -2; Mtb hypoxia inh growth: 0

How did COc1ccc(N(CC(=O)N/N=C/c2cccc3c2OCCO3)S(=O)(=O)c2ccc(NC(C)=O)cc2)cc1 do in these assays?
BJeLR lethal: -1; Autofluor counter: 4853; PrP 5UTR inh: -19

What do the screens show for `Cc1ccsc1C(=O)OCC(=O)c1ccc[nH]1`?
ugtP null kill: 2; Sa RN4220 lethal: 4.3; Autofluor counter: 6435; PrP 5UTR inh: -62; Mtb hypoxia inh: 7; Mtb hypoxia inh growth: 1

What do the screens show for `COc1cccc(CSc2nc3nc(C)cc(C)n3n2)c1`?
ugtP null kill: 2; BJeLR lethal: -7; Sa RN4220 lethal: 1.1; Autofluor counter: 3364; PrP 5UTR inh: -21; Mtb hypoxia inh: 3; Mtb hypoxia inh growth: -2

Results for Cn1cnnc1Sc1ccc(/C=C(\CC(=O)O)c2nc3ccccc3s2)cc1[N+](=O)[O-] ?
ugtP null kill: 6; BJeLR lethal: 3; Sa RN4220 lethal: 4.6; Autofluor counter: 6013; PrP 5UTR inh: -22; Mtb hypoxia inh: 7; Mtb hypoxia inh growth: 2

What do the screens show for `CN(C)c1ccc(/C=N/NC(=O)c2nnn(-c3nonc3N)c2CN2CCCCCC2)cc1`?
BJeLR lethal: -1; Autofluor counter: 6638; PrP 5UTR inh: -27

What do the screens show for `CC(C)(C)SCCNC(=O)COc1ccccc1`?
ugtP null kill: 1; BJeLR lethal: 3; Sa RN4220 lethal: 0.6; Autofluor counter: 5880; PrP 5UTR inh: -14

How did COCc1c(C(=O)OCC(=O)c2ccc[nH]2)oc2ccccc12 do in these assays?
ugtP null kill: 6; Sa RN4220 lethal: 4.5; Autofluor counter: 4523; PrP 5UTR inh: -64; Mtb hypoxia inh: 18; Mtb hypoxia inh growth: 3

Results for CCOc1ccc(NC(=O)Nc2cc(C)ccc2OC)cc1 ?
ugtP null kill: 22; BJeLR lethal: 4; Sa RN4220 lethal: -5.2; Autofluor counter: 3559; PrP 5UTR inh: -28; Mtb hypoxia inh: 6; Mtb hypoxia inh growth: 8

How did Cc1cc(NC(=O)CCC(=O)N(Cc2ccco2)C(C(=O)NC2CCCCC2)c2cccs2)no1 (centres undefined) do in these assays?
ugtP null kill: 4; BJeLR lethal: -15; Sa RN4220 lethal: 2.4; Autofluor counter: 3843; PrP 5UTR inh: -19; Mtb hypoxia inh: 10; Mtb hypoxia inh growth: 12

What do the screens show for `S=C(NCc1ccc(Cl)cc1)NCc1ccco1`?
ugtP null kill: 2; BJeLR lethal: 2; Sa RN4220 lethal: -2.0; Autofluor counter: 6100; PrP 5UTR inh: -14; Mtb hypoxia inh: 24; Mtb hypoxia inh growth: 14

Results for Fc1cccc(Nc2nc3ccccc3n3cnnc23)c1 ?
ugtP null kill: -5; BJeLR lethal: 15; Sa RN4220 lethal: 1.6; Autofluor counter: 3050; PrP 5UTR inh: -13; Mtb hypoxia inh: 7; Mtb hypoxia inh growth: -4

Results for CC1CN(C(=O)c2ccc(COc3ccccc3Br)o2)CC(C)O1 (centres undefined) ?
ugtP null kill: 19; BJeLR lethal: -7; Sa RN4220 lethal: 4.9; Autofluor counter: 2195; PrP 5UTR inh: -28; Mtb hypoxia inh: 5; Mtb hypoxia inh growth: 2

Results for CC(O/N=C\c1ccccc1O)C(=O)Nc1ccccc1C(=O)N1CCOCC1 (centres undefined) ?
BJeLR lethal: -9; Autofluor counter: 2497; PrP 5UTR inh: -21

Results for COc1ccc(S(=O)(=O)N2CCOCC2)cc1NC(=O)CSc1ccccc1 ?
ugtP null kill: 0; BJeLR lethal: -14; Sa RN4220 lethal: 3.9; Autofluor counter: 4709; PrP 5UTR inh: -8; Mtb hypoxia inh: 11; Mtb hypoxia inh growth: -11

How did O=[N+]([O-])c1ccc(N2CCCC2)c2ccncc12 do in these assays?
ugtP null kill: 10; BJeLR lethal: 21; Sa RN4220 lethal: 4.0; Autofluor counter: 4239; PrP 5UTR inh: -30; Mtb hypoxia inh: 16; Mtb hypoxia inh growth: 4

How did COc1ccc(NC(=O)C2CCCN2S(=O)(=O)c2ccc(F)cc2)cc1 (centres undefined) do in these assays?
ugtP null kill: 2; BJeLR lethal: -11; Sa RN4220 lethal: 2.9; Autofluor counter: 4277; PrP 5UTR inh: -18

What do the screens show for `c1cc2c3c(cccc3c1)C(N1CCOCC1)=N2`?
BJeLR lethal: 2; Autofluor counter: 3228; PrP 5UTR inh: -36

What do the screens show for `CCc1ccc(NC(=O)C(C)OC(=O)/C=C/c2cccc([N+](=O)[O-])c2)cc1` (centres undefined)?
ugtP null kill: 1; BJeLR lethal: -8; Sa RN4220 lethal: 9.3; Autofluor counter: 1886; PrP 5UTR inh: -2; Mtb hypoxia inh: 7; Mtb hypoxia inh growth: 2

Results for COc1ccc(CN2CCNC(=O)C2CC(=O)N2CCc3ccccc3C2)c(OC)c1 (centres undefined) ?
ugtP null kill: -4; BJeLR lethal: -3; Sa RN4220 lethal: 2.2; Autofluor counter: 4235; PrP 5UTR inh: -10; Mtb hypoxia inh: 7; Mtb hypoxia inh growth: 5

Retrieved one by one from above (4):
What do the screens show for `N#CCSc1nc2ccccc2c(=O)n1CCC(=O)NC1CCCCC1`?
ugtP null kill: 1; BJeLR lethal: 8; Sa RN4220 lethal: 1.1; Autofluor counter: 13399; PrP 5UTR inh: -4; Mtb hypoxia inh: -4; Mtb hypoxia inh growth: 14

What do the screens show for `O=C(COc1ccc(Cl)cc1)NCc1nnc(SCC(=O)NCCc2ccccc2)o1`?
ugtP null kill: 3; BJeLR lethal: 5; Sa RN4220 lethal: -1.4; Autofluor counter: 4809; PrP 5UTR inh: -12

Results for CCOc1ccc(NC(=O)Nc2cc(C)ccc2OC)cc1 ?
ugtP null kill: 22; BJeLR lethal: 4; Sa RN4220 lethal: -5.2; Autofluor counter: 3559; PrP 5UTR inh: -28; Mtb hypoxia inh: 6; Mtb hypoxia inh growth: 8

What do the screens show for `S=C(NCc1ccc(Cl)cc1)NCc1ccco1`?
ugtP null kill: 2; BJeLR lethal: 2; Sa RN4220 lethal: -2.0; Autofluor counter: 6100; PrP 5UTR inh: -14; Mtb hypoxia inh: 24; Mtb hypoxia inh growth: 14

From PubChem BioAssay
